High-throughput results (PubChem)
Cruzain inh noDet = blocks cruzain activity in detergent-free assay; purified cruzain, Z-FR-AMC fluorescence, no detergent; P25779; AID 1476; Potency, µM, for the others: max response, negative = inhibition, actives largely listed as inhibitors; 200,000 tested, 2.3% active; active = well fitted curve in the direction sought with a large enough effect; inconclusive = small, poorly fitted or top-dose-only effect, or another doubt; inactive = no such curve, though single readings can be large; an effect the other way counts as inactive or inconclusive;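 note: plate controls were enzyme without inhibitor for no effect and buffer without enzyme for full effect; nearly all actives have a fitted effect of over 40% in size; top concentration of the series not given in the record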
Target sequence (P25779 123-467 limits assumed): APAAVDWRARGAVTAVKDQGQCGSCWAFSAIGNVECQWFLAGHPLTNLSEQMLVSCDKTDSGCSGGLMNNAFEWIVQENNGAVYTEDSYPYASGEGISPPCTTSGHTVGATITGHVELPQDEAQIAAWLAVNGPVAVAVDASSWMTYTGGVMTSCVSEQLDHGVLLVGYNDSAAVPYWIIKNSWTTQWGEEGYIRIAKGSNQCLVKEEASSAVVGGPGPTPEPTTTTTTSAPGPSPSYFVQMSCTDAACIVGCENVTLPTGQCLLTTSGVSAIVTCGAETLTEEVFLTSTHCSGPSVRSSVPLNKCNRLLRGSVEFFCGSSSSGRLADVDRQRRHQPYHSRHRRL
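Purified cruzain at 1.5 nM, pre-incubated 15 min with compound at room temperature in 100 mM sodium acetate pH 5.5, 5 mM DTT, 0.00005% Triton X-100. Reaction started with 2 uM Z-FR-AMC; AMC fluorescence increase over 60 s gives rate.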
LASV entry inh = Lassa virus entry inhibition; Lassa virus pseudotype entry inhibition, cell reporter; control for the full effect not named in the record; Potency, µM (top dose mostly 37.9 µM), for inactives: at the highest dose activity change, negative = inhibition, usual class: inhibitors; AID 540256; 300,000 tested, 1.2% active; active means well fitted inhibition curve with a large enough effect; inconclusive means small, poorly fitted or top-dose-only effect, or effect the other way; inactive means flat fitted curve, though single readings scatter; tested in HEK293 cells; note: % is set by controls: 0 for no effect and ±100 for the full control effect; nearly all actives have a fitted effect of over 50% in size; luciferase read-out
Cruzain Triton = blocks cruzain activity in presence of Triton detergent. purified cruzain, Z-FR-AMC fluorescence, 0.01% Triton. Potency, µM, for the others: max response, negative = inhibition, most hits filed as inhibitors. P25779. 200,000 tested, 0.43% active; active = well fitted curve in the direction sought with a large enough effect; inconclusive = small, poorly fitted or top-dose-only effect, or another doubt; inactive = no such curve, though single readings can be large; an effect the other way counts as inactive or inconclusive;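 note: plate controls were neutral wells for no effect and buffer without enzyme for full effect; nearly all actives have a fitted effect of over 40% in size; top concentration of the series not given in the record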
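Steps: dispense cruzain (1.5 nM final) in acetate buffer pH 5.5 with DTT and 0.01% Triton X-100; pin-transfer compounds; incubate 15 min RT; add Z-FR-AMC (2 uM final); read fluorescence every 30 s, using the 60 s intensity change.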
StopGo reporter = FMDV 2A StopGo reporter, luciferase signal | human cells with a luciferase reporter of 2A StopGo recoding; control for the full effect not named in the record | Potency, µM (doses to about 57.9 µM), for inactives: top-dose signal change, negative = less light | 410,000 tested, 1.2% active | AID 1159524; active = well fitted falling curve with a large enough effect; inconclusive = small, poorly fitted or top-dose-only effect; inactive = no such curve, though single readings can be large or run the other way; tested in HEK293T cells; note: % is set by controls: 0 for no effect and ±100 for the full control effect; nearly all actives have a fitted effect of over 45% in size; luciferase light after 4 h
RE007 growth inh = less growth of the S. pombe RE007 Vpr strain; AID 651644; Potency, µM (doses to about 92.2 µM), without a hit: top-dose activity change, negative = less growth; 360,000 tested, 0.21% active; S. pombe RE007 Vpr strain, BacTiter-Glo ATP luminescence, 24 h; control for the full effect not named in the record; active = well fitted falling curve with a large enough effect; inconclusive = small, poorly fitted or top-dose-only effect; inactive = no such curve, though single readings can be large or run the other way;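 note: % is set by controls: 0 for no effect and ±100 for the full control effect; nearly all actives have a fitted effect of over 50% in size; the assay follows cell death caused by Vpr and the record does not say whether a fall means rescue or toxicity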
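Fission yeast RE007 carrying one integrated HIV-1 vpr copy, seeded at OD 0.01 in PMG+AL medium with 23 nL pinned compound. Grown 24 h at 30 degrees; viability read by BacTiter-Glo luminescence after 5 min.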
NS1 inh = influenza NS1 inhibition | 270,000 tested, 0.4% active | AID 2326 | S. cerevisiae slowed by influenza A NS1, growth recovery by OD600 | Potency, µM (titrated, usually from 46.1 µM), for the others: at the highest dose activity, positive = more growth; note: actives are rising curves; nearly all actives have a fitted effect of over 50% in size
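Compounds were scored for reversing the slow growth caused by influenza A NS1 in S. cerevisiae, measured by optical density at 600 nm. Assay medium contained 2% galactose at pH 6.0; NS1-free yeast of the same strain were the positive control.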
SARS PLpro yeast = blocks SARS-CoV papain-like protease in a yeast assay; S. cerevisiae expressing SARS-CoV PLpro, growth rescue; control for the full effect not named in the record; Potency, µM (titrated, usually from 32.9 µM), for inactives: at the highest dose activity, positive = growth rescue; 330,000 tested, 0.19% active; note: 0% is about no effect; nearly all actives have a fitted effect of over 55% in size; growth read by luminescence after 48 h
MARV entry inh = Marburg virus entry inhibition; 300,000 tested, 1.8% active; AID 540276; Marburg virus pseudotyped entry inhibition, cell reporter; control for the full effect not named in the record; about a third of the inactives were read at about 46 µM; Potency, µM (series often up to 37.8 µM), inactives show at the highest dose activity change, negative = inhibition, most hits filed as inhibitors; active = well fitted inhibition curve with a large enough effect; inconclusive = small, poorly fitted or top-dose-only effect, or effect the other way; inactive = flat fitted curve, though single readings scatter; tested in HEK293 cells; about a fifth of its hits are not listed in these tables; note: % is set by controls: 0 for no effect and ±100 for the full control effect; luciferase read-out
Numbers without * were called inactive; ? = inconclusive; . = no result given; [ ] = another dose, or the depositor's remark. Unless noted, calls come from the whole dose curve; as a rule, active means well fitted rising curve with a large enough effect; inconclusive means small, poorly fitted or top-dose-only effect; inactive means no such curve, though single readings can be large or run the other way. Potency is the fitted concentration of half-maximal effect.

no.	structure	Cruzain inh noDet	LASV entry inh	Cruzain Triton	StopGo reporter
1	O=c1c(-c2ccccc2)coc2c(CN3CCCCC3)c(O)ccc12	.	.	.	-15%
2	Cc1ccc2oc(C(=O)NCc3ccc4c(c3)OCO4)c(C)c2c1	-7%	?	-4.1%	-1%
3	O=C(c1snnc1-c1ccccc1)N1CCOCC1	.	.	.	-12%
4	O=C(N/N=C/c1c(O)n(Cc2ccc(F)cc2)c(=S)[nH]c1=O)c1ccncc1	.	4%[46.1 µM]	.	13%
5	CCOc1ccc(C(C)C)cc1S(=O)(=O)Nc1ccc(Cl)cn1	-2%	1%	3.7%	65%[activator]
6	CCOC(=O)CC1COCCN1Cc1cn[nH]c1-c1ccc2c(c1)OCO2 (stereo not drawn)	.	?	.	-16%
7	O=C(CN1CCN(c2ccccn2)CC1)Nc1ccc([N+](=O)[O-])cc1C(=O)Nc1ccccc1F	.	?	.	?
8	Cc1ccc(N2CN=C3SCC(=O)N3C2)cc1C	.	.	.	15%

no.	RE007 growth inh	NS1 inh	SARS PLpro yeast	MARV entry inh
1	-6%	6%	-6%	.
2	-22%	-124%	.	5%
3	-4%	0%	1%	.
4	13%	-4%	3%	-1%[46.1 µM]
5	-6%	-3%	0%	23%
6	9%	3%	0%	3%[46.1 µM]
7	-17%	-8%	2%	?
8	9%	-1%	-1%	.

6 consecutive entries out of the list so far, for reference:
no.	structure	Cruzain inh noDet	LASV entry inh	Cruzain Triton	StopGo reporter
2	Cc1ccc2oc(C(=O)NCc3ccc4c(c3)OCO4)c(C)c2c1	-7%	?	-4.1%	-1%
3	O=C(c1snnc1-c1ccccc1)N1CCOCC1	.	.	.	-12%
4	O=C(N/N=C/c1c(O)n(Cc2ccc(F)cc2)c(=S)[nH]c1=O)c1ccncc1	.	4%[46.1 µM]	.	13%
5	CCOc1ccc(C(C)C)cc1S(=O)(=O)Nc1ccc(Cl)cn1	-2%	1%	3.7%	65%[activator]
6	CCOC(=O)CC1COCCN1Cc1cn[nH]c1-c1ccc2c(c1)OCO2 (stereo not drawn)	.	?	.	-16%
7	O=C(CN1CCN(c2ccccn2)CC1)Nc1ccc([N+](=O)[O-])cc1C(=O)Nc1ccccc1F	.	?	.	?

no.	RE007 growth inh	NS1 inh	SARS PLpro yeast	MARV entry inh
2	-22%	-124%	.	5%
3	-4%	0%	1%	.
4	13%	-4%	3%	-1%[46.1 µM]
5	-6%	-3%	0%	23%
6	9%	3%	0%	3%[46.1 µM]
7	-17%	-8%	2%	?

Further compounds follow:
no.	structure	Cruzain inh noDet	LASV entry inh	Cruzain Triton	StopGo reporter
9	CCCC(=O)NCC(c1cccs1)S(=O)(=O)c1ccc(Cl)cc1 (stereo not drawn)	.	?	.	26%
10	Cc1cccc(NC(=O)N(C)Cc2cccs2)c1	3%	26%	9.2%	44%[activator]
11	CCCC(C)NC(=O)COc1ccc(Sc2ccc(OCC(=O)NC(C)CCC)cc2)cc1 (stereo not drawn)	-1%	?	-7.1%	?
12	CCCSc1sc(C(=O)OC)c(-c2cccs2)c1C#N	.	-26%[46.1 µM]	.	0%
13	CCOC(=O)C1CCCN(C(=O)CCNS(=O)(=O)c2cc(Br)cnc2N)C1 (stereo not drawn)	.	.	.	-3%
14	O=C(CNC(=O)c1ccccc1F)NNC(=O)c1ccccc1O	.	?	.	-12%
15	CN(C)C(=O)CSc1nnc(NC(=O)CCc2ccccc2)s1	.	14%[46.1 µM]	.	-7%
16	CCOC(=O)c1ccc(S(=O)(=O)N2CCN(CCC#N)CC2)cc1	-3%	.	-1.4%	-9%

no.	RE007 growth inh	NS1 inh	SARS PLpro yeast	MARV entry inh
9	6%	-5%	0%	7%[46.1 µM]
10	-2%	-11%	0%	8%
11	0%	5%	17%	?
12	11%	-3%	1%	?
13	12%	11%	?	.
14	-12%	.	-1%	4%[46.1 µM]
15	6%	4%	0%	0%[46.1 µM]
16	6%	-12%	3%	.

Next records follow:
no.	structure	Cruzain inh noDet	LASV entry inh	Cruzain Triton	StopGo reporter
17	CCCCC(=O)Nc1nnc(S(=O)(=O)N(C)Cc2ccc(Cl)cc2)s1	-2%	18%[46.1 µM]	-1.9%	12%
18	O=C(c1cc(Cl)ccc1[N+](=O)[O-])N1CCc2ccccc2C1	-5%	4%	-2.1%	-6%
19	CC(=O)N(Cc1cccnc1)c1nc2c(C)cccc2s1	13%	-6%[46.1 µM]	-2.5%	7%
20	Cc1c(C)c2ccc(OC(C)C(=O)N3CC[C@@]4(O)CCCC[C@H]4C3)c(C)c2oc1=O (stereo partly drawn)	.	.	.	-8%
21	CCc1ccc(OCC(=O)N(Cc2ccccc2)C2CCS(=O)(=O)C2)cc1 (stereo not drawn)	.	-9%	.	-1%
22	CCOC(=O)CNC(=O)CSc1nnc(-c2ccco2)n1N	-5%	-2%	3.8%	-2%
23	Cc1ccc(OCC(=O)N/N=C/c2ccc([N+](=O)[O-])o2)cc1	-5%	-23%	-1.1%	-8%
24	S=c1cn[nH]c2ccccc12	.	?	.	42%[activator]

no.	RE007 growth inh	NS1 inh	SARS PLpro yeast	MARV entry inh
17	.	.	.	.
18	-16%	2%	18%	2%
19	.	.	.	.
20	3%	-13%	8%	.
21	35%	-6%	-1%	-16%[46.1 µM]
22	6%	3%	0%	7%
23	-14%	-21%	-20%	-39%
24	20%	.	.	8%

Remaining list, next part:
no.	structure	Cruzain inh noDet	LASV entry inh	Cruzain Triton	StopGo reporter
25	COc1nc(Oc2ccc(C(=O)O)cc2)nc(Oc2ccc(C(=O)O)cc2)n1	-7%	?	5.1%	-19%
26	COC(=O)c1ccc(NC(=O)CSc2nnc(CNc3ccc(F)cc3)n2C)cc1	-4%	10%	-0.3%	.
27	CC(C)(C)NC(=O)C(c1cccnc1)N(C(=O)c1csnn1)c1ccccc1 (stereo not drawn)	.	.	.	0%
28	COc1ccc(CNC(=O)/C(C#N)=C/c2cccc(OC)c2OC)cc1	.	3.5µM*	.	22µM*
29	COCCCNCCOCCSc1ccc(Cl)cc1	4%	10%	0.7%	-7%
30	O=C(CSc1nnc(-c2ccco2)n1Cc1ccccc1)c1ccccc1	-1%	2%	-5.8%	18%
31	CCOC(=O)c1sc(NC(=S)NC(=O)c2ccco2)nc1C	?	14%	-1.1%	31%[activator]
32	O=C(OCC(=O)c1ccc[nH]1)c1ccc(Cl)c(Cl)c1	.	25%[46.1 µM]	.	12%

no.	RE007 growth inh	NS1 inh	SARS PLpro yeast	MARV entry inh
25	-8%	7%	-4%	19%
26	8%	-3%	3%	8%
27	1%	4%	-1%	.
28	2%	-6%	-1%	?
29	-19%	18%	-16%	?
30	6%	-24%	4%	?
31	0%	4%	-14%	15%
32	-16%	.	-16%	7%[46.1 µM]

Individual results from above.
Value for compound 25 under NS1 inh: 7%
Value for compound 31 under Cruzain Triton: -1.1%

The list goes on.
no.	structure	Cruzain inh noDet	LASV entry inh	Cruzain Triton	StopGo reporter
33	CCN(CC)c1ccc(NC(=O)c2sc3ccccc3c2Cl)cc1	23%	-24%[46.1 µM]	-1.4%	64%[activator]
34	Cc1ccccc1NC(=S)Nc1ccccc1	.	27%	.	46%[activator]
35	CCC(c1nnc(SCC(=O)Nc2ccc(NC(C)=O)cc2)n1Cc1ccccc1)N(C)C (stereo not drawn)	.	?	.	5%
36	Cc1ccc(S(=O)(=O)N2CCOCC2)cc1C(=O)N1CCN(Cc2ccccc2)CC1	.	-22%	.	-17%
37	C[C@@H]1CC=C[C@@H]2[C@H]1C(=O)N(Cc1ccccc1)[C@H]2c1cccc(C#Cc2ccccc2)c1	-26%	.	1.5%	?
38	Cc1cccc(NC(=O)CSc2nc3c(oc4ccccc43)c(=O)n2-c2ccccc2)c1C	?	.	-2.9%	-15%
39	Cc1ccc(NC(=O)Nc2ccc3c(c2)N(C)C(=O)CS3)cc1C	-7%	.	-7.8%	-8%
40	O=C(O)C1C2C=CC(C2)C1C(=O)NC(c1ccccc1)c1ccccc1 (stereo not drawn)	2%	-6%	0.1%	-25%

no.	RE007 growth inh	NS1 inh	SARS PLpro yeast	MARV entry inh
33	.	.	.	.
34	-14%	-1%	2%	8%
35	-14%	9%	0%	19%
36	-23%	.	2%	-14%
37	30%	.	3%	.
38	.	.	.	?
39	4%	15%	18%	.
40	-17%	-4%	-8%	7%

(list continues)
no.	structure	Cruzain inh noDet	LASV entry inh	Cruzain Triton	StopGo reporter
41	CS(=O)(=O)N1CCCC(C(=O)NCc2ccc(F)cc2Cl)C1 (stereo not drawn)	2%	19%	5.0%	-12%
42	COc1ccc(CCNS(=O)(=O)c2ccc(OC)cc2)cc1	-1%	-16%	-0.7%	70%[activator]
43	Cc1ccc(C2=NN(CC(=O)NC(C)c3ccccc3)C(=O)CC2)cc1 (stereo not drawn)	29%	14%[46.1 µM]	0.6%	4%
44	CCCCC(=O)Nc1nc(C)c(-c2csc(Nc3ccccc3OC)n2)s1	?	.	-2.9%	-21%
45	O=C(Oc1ccc(-c2cnc3ccccc3n2)cc1)c1ccc(Cl)c([N+](=O)[O-])c1	?	-26%	0.1%	3%
46	Cc1cccc(C(=O)NNC(=O)CSc2nnc(C3CC3)n2C)c1	.	-1%[46.1 µM]	.	-2%
47	O=C1c2cccc([N+](=O)[O-])c2C(=O)N1C1CCCCC1	.	.	.	-6%
48	CCOC(=O)c1c(C)[nH]c(C(=O)OCC(=O)N2c3ccccc3CC2C)c1C (stereo not drawn)	12%	?	0.8%	?

no.	RE007 growth inh	NS1 inh	SARS PLpro yeast	MARV entry inh
41	-7%	6%	0%	-20%
42	-6%	-85%	-8%	?
43	.	.	.	.
44	5%	18%	3%	.
45	6%	1%	0%	-4%
46	-8%	7%	0%	-2%[46.1 µM]
47	-8%	-31%	-2%	.
48	-1%	-20%	-9%	?
